Source: PubChem BioAssay
GLA inh pH 4.5: blocks human alpha-galactosidase A at pH 4.5. P06280. purified enzyme, 4-MU-alpha-Gal fluorescence, pH 4.5. activity change, negative = inhibition, % at 105 µM. 230,000 tested, under 10 active. AID 1467; inconclusive = small, poorly fitted or top-dose-only inhibition, or a rising curve; inactive = flat fitted curve, though single readings scatter; no compound was filed as active;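 also: 0% = full activity with enzyme and -100% = basal without enzyme; dose as in the result columns while the protocol names 77 µM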
Target sequence (P06280 whole entry, looked up): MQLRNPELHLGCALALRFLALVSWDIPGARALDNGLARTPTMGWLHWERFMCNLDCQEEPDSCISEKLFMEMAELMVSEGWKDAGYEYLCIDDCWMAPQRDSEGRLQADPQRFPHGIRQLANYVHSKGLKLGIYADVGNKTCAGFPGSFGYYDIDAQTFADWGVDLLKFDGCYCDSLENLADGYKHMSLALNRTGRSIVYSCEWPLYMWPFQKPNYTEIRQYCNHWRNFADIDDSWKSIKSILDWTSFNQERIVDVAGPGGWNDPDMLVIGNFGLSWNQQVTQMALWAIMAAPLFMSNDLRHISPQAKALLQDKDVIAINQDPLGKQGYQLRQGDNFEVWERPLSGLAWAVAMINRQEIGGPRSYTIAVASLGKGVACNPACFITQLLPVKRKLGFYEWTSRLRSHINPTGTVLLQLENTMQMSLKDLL
miR-21 reporter: raises the signal of a miR-21 reporter; Potency, µM (series often up to 38.3 µM), for the others: at the top dose reporter change, positive = more light; AID 2288; HeLa miR-21 FLuc reporter, luciferase, 48 h; 340,000 tested, under 10 active; active = well fitted rising curve with a large enough effect; inconclusive = small, poorly fitted or top-dose-only effect; inactive = no such curve, though single readings can be large or run the other way;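 also: % of control where 0% means no effect; miR-21 action dims this reporter so a rising signal means less miR-21 action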
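Using DMEM plus 10% FBS, HeLa miR-21-FLuc cells are incubated with test compounds (final up to about 40uM) for 48 hours; firefly luciferase signal is then imaged following reagent-mediated lysis.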
Rango-impB inh: inhibitors of Rango-importin beta complex formation. Rango CFP/YFP FRET sensor + importin beta, 45 min. Potency, µM (series often up to 92.2 µM), for the others: at the highest dose inhibition of complex formation. 340,000 compounds, 0.031% hits; active = rising FRET ratio curve, often small or poorly fitted; inconclusive = mostly compound fluorescence or quenching in the first reads; inactive = flat curves in all reads;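 also: potency is read from the fitted curve at half-maximal effect; 0% = DMSO wells and 100% = buffer wells lacking importin beta; nearly all actives have a fitted effect of over 15% in size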
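FRET biosensor (snurportin 1 IBB flanked by EYFP and cerulean), 50 nM, with compound 5 min, then 0.125 microM importin beta in PBS, 1 mM DTT, 0.02% Tween-20, 0.1% BSA. CFP/YFP ratio read after 45 min at room temperature; pre-read flags interference.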
Rango dissoc inh: inhibitors of RanGTP-induced Rango-importin beta complex dissociation. O95149+P62826. Biochemical FRET Rango-importin beta, RanGTP-induced dissociation. Potency, µM (doses to about 46.1 µM), for inactives: top-dose activity change, negative = inhibition. 340,000 compounds, 0.071% hits; active means falling FRET ratio curve, often poorly fitted, with flat reads before Ran was added; inconclusive means other falling curves, or compound fluorescence or quenching; inactive means flat or rising ratio curve;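 also: potency is read from the fitted curve at half-maximal effect; % of control where 0% means no effect; nearly all actives have a fitted effect of over 45% in size; -100% = wells without RanGTP and RCC1; the record marks most hits as doubtful in a second field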
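Rango FRET biosensor (snurportin-1 IBB flanked by N-terminal EYFP and C-terminal CFP10) at 0.1 uM, with 0.25 uM importin beta in PBS, 1mM DTT, 0.02% Tween-20, 0.1% BSA. 0.6 uM Ran, 2mM GTP and 0.2 uM RCC1 were then added for 45 min at room temperature. Inhibition read as loss of FRET rise.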
Starred values were filed as active, the others as inactive; ? = inconclusive; / = no result given; & = joins results of further samples. Only part of the results is shown. The share of hits here may be higher or lower than overall.

SMILES	GLA inh pH 4.5	miR-21 reporter	Rango-impB inh	Rango dissoc inh
NC(=O)c1c(NC(=O)c2c(F)cccc2F)sc2c1CCN(Cc1ccccc1)C2	/	4%	?	?
COCCNC(=O)c1ccc2c(c1)S(=O)(=O)c1cc(Cl)ccc1C2=O	/	/	0.8%	11%
COc1ccccc1CN1C[C@@H]2C[C@@H](c3cccc(O)c3)N3CCC[C@@]23C1=O	-3	0%	-0.5%	-6%
CC(=O)Nc1cc(NC(C)=O)cc(C(=O)NC(C)(C)C)c1	2	-3%	-1.6%	0%
Cc1nc(C(=O)NNC(=O)Nc2ccccc2)cs1	4	-11%	6.0%	11%
O=C(COC(=O)c1ccc[nH]c1=O)Nc1cc(S(=O)(=O)N2CCCCC2)ccc1Cl	-15	-4%	0.7%	-3%
COc1ccc(NC(=O)CSc2ncn[nH]2)c([N+](=O)[O-])c1	-2	0%	2.8%	-11%
Cc1ccc(Cn2ccc(-c3cnc(-c4ccccc4)s3)n2)cc1	6	-33%	0.0%	-18%
COC(=O)[C@]1(C)N[C@H](CN(C)C(=O)Nc2ccc(C)cc2)[C@@H]2C(=O)N(Cc3ccccc3)C(=O)[C@@H]21	/	/	0.0%	8%
O=C(Nc1nccs1)c1ccc2c(c1)C(=O)N(Cc1cccnc1)C2=O	/	0%	4.2%	-16%
CCCCn1c(N)c(N(CCOC)C(=O)c2sc3cc(F)ccc3c2Cl)c(=O)[nH]c1=O	/	/	-0.1%	5%
NC1=NC(=Nc2cccc(Cl)c2)c2ccccc21	5	-15%	0.4%	-7%
CC1(C)CC(=O)C=C(Nc2ccc([N+](=O)[O-])cc2)C1	/	5%	-3.6%	1%
COc1ccc(-n2nc3c(c2NC(=O)C(C)Cl)CSC3)cc1 (stereo not given)	/	-2%	-1.7%	7%
Cc1ccc(CNc2ccc3c(c2)OCO3)cc1	0	-45%	?	?
CCN1CCN(C(=O)CN(C)S(=O)(=O)c2ccc(Cl)cc2)CC1	-3	-5%	0.2%	-10%
CCN(CC(=O)NCCCN1CCOCC1)S(=O)(=O)c1ccc(Cl)cc1	/	0%	-2.1%	-1%
O=C1C(=C(I)I)c2ccccc2-c2ccccc21	/	/	3.0%	12%
COc1ccc(C2/C(=C(/O)c3ccc(Cl)cc3)C(=O)C(=O)N2CCN2CCOCC2)c(OC)c1 (stereo not given)	6	-5%	0.1%	-4%
COC(=O)c1cc(NC(=S)N2CCN(C(=O)C3CCCO3)CC2)cc(C(=O)OC)c1 (stereo not given)	3	0%	1.1%	2%
COc1cc(C(=O)Nc2ccc(OCC(=O)N3CCOCC3)cc2C)cc(OC)c1OC	/	-3%	-1.0%	-3%
COc1cc(C#N)ccc1OCC(=O)c1ccc2c(c1)OCCO2	7	-20%	2.6%	3%
CC1(C)Cc2c(cnn2-c2ccc(F)cc2)C(NC(=O)c2ccoc2)C1 (stereo not given)	/	-5%	6.6%	-6%
O=C(NC(CC1CCCCC1)C(=O)O)c1ccccc1 (stereo not given)	/	/	-0.6%	3%
CC(NC(=O)c1ccc(N(C)C)cc1)C(c1cccs1)N1CCN(C)CC1 (stereo not given)	-6	-14%	-1.7%	0%

(more compounds)
SMILES	GLA inh pH 4.5	miR-21 reporter	Rango-impB inh	Rango dissoc inh
CCCN(C(=O)CCNC(=O)Cn1cnc2ccccc2c1=O)c1cccc(C)c1	/	-3%&-2%	0.1%	2%
O=C(CCS(=O)(=O)c1ccccc1)Nc1nc2ccc(F)cc2s1	/	/	0.9%	-7%
CCCn1c(C)cc(C(=O)COc2ccc(C)nc2[N+](=O)[O-])c1C	2	-37%	-1.2%	0%
CCc1cccc(N(CC(=O)NCc2ccc(F)cc2)C(=O)c2csnn2)c1	1	-1%	-1.8%	2%
COc1ccc(C(C)=O)cc1CSc1nnc(Nc2ccccc2C)s1	-8	-7%	?	3%
CCC(=O)c1c[nH]c(C(=O)NCc2cccs2)c1	-11	4%	?	-14%
O=C(NCCCN=C1NS(=O)(=O)c2ccccc21)c1ccc(F)cc1	/	-12%	-0.3%	6%
CC(C)c1nnc(SCC(=O)NCCC2=CCCCC2)n1N	5	-6%	-2.1%	-1%
COc1ccc(C2C3=C(COC3=O)Oc3cc4c(cc32)OCO4)cc1OC (stereo not given)	/	/	2.2%	-1%
FC(F)(F)c1nnc2ccc(-n3ccnc3)nn12	2	-1%	1.9%	34%
CC(C)CCN1CCN(Cc2nc3ccccc3s2)CC1CCO (stereo not given)	0	-1%	-4.7%	-4%
CCCC(CCC)C(=O)NCCN1CCOCC1	2	-5%	2.2%	?
O=C(NCc1ccccc1Cl)C1CCN(S(=O)(=O)N2CCCCCC2)CC1	6	-1%	1.5%	26%
COc1ccc(N2CCN(CC(O)COC(C)(C)C)CC2)cc1 (stereo not given)	-2	-1%	-1.9%	4%
O=C(NCCN1C(=O)S/C(=C\c2cccc(Cl)c2Cl)C1=O)C1=COCCO1	/	0%	1.5%	-11%
Cc1ccccc1NC(=O)Cc1nc(COC(=O)c2ccc(C(F)(F)F)cc2)cs1	/	/	0.5%	8%
CC(C)c1cn(C2OC(COC(=O)c3ccccc3)C(OC(=O)c3ccccc3)C2OC(=O)c2ccccc2)c(=O)[nH]c1=O (stereo not given)	/	/	0.3%	1%
CCCCNc1c(-c2ccc(OC)c(SC(C)CC)c2)nc2cnccn12 (stereo not given)	/	/	?	?
O=S(=O)(c1ccc(F)cc1)N1CCCN(Cc2c(F)cccc2F)CC1	/	0%	-1.9%	33%
CCOC(=O)c1c(C)[nH]c(C)c1S(=O)(=O)N1c2ccccc2CC1C (stereo not given)	/	4%	-0.3%	2%
O=C(NCC1(O)CCCCC1)C1CCC(=O)N(Cc2cccc(C(F)(F)F)c2)C1 (stereo not given)	/	0%	2.4%	-14%
COc1ccc(S(=O)(=O)N2CCN(C(=O)NC3CCCCC3)CC2)cc1	12	-10%	-2.9%	-2%
CC1(C)N=C(N)N=C(N)N1c1ccc(C(=O)O)cc1	-6	0%	/	/
O=C1c2cccc([N+](=O)[O-])c2C(=O)N1c1cccnc1	3	-4%	1.6%	1%
COc1ccccc1/C=N/NC(=O)COCC(=O)N/N=C/c1ccccc1OC	-6	0%	0.7%	-5%

Next compounds follow:
SMILES	GLA inh pH 4.5	miR-21 reporter	Rango-impB inh	Rango dissoc inh
O=C(C1Cc2ccccc2CN1C(=O)c1ccco1)N1CCN(c2ccccc2)CC1 (stereo not given)	/	/	2.1%	-10%
O=C(COC(=O)c1cccc([N+](=O)[O-])c1)NC1CCCC1	/	4%	1.6%	1%
CCOC(=O)c1sc(NC(=O)CC)nc1C	3	-8%	-4.0%	6%
CC(=O)Nc1ccc(NC(=O)CC23CC4CC(CC(C4)C2)C3)cc1	/	-10%	1.3%	-11%
O=C(NCCN1CCOCC1)C1(C(F)(F)F)C/C(=C\Cc2ccccc2)CCCO1 (stereo not given)	/	/	-0.7%	2%
CCOC(=O)c1c(C)n(C)c2ccc(OC)c([N+](=O)[O-])c12	-12	0%	-1.4%	2%
COc1ccc(C)cc1NC(=O)Nc1ccncc1	/	5%	0.1%	1%
Cc1ccc(CCNC(=O)CCCn2nc(C)c3c(C)n(-c4ccc(C)cc4)nc3c2=O)cc1	/	1%&3%	-5.9%	1%
CNC(=O)COc1coc(CN2CCN(c3ccc(OC)cc3)CC2)cc1=O	/	2%	0.5%	-3%
CCOCC(=O)Nc1ccc(C(=O)Nc2ccccc2Cl)cc1	-27	-36%	/	/
CCCOc1ccc(/C=N/NC(=O)C2CCCN2S(=O)(=O)c2ccc(Cl)cc2)cc1 (stereo not given)	-18	2%	3.9%	-7%
O=C(O)c1cccc(NC(=S)NC(=O)c2cncc(Br)c2)c1	/	/	2.7%	-8%
O=C(Nc1ccc(S(=O)(=O)N2CCCC2)cc1)C1CCN(S(=O)(=O)c2ccc(F)cc2)CC1	/	/	-3.1%	-8%
COc1cc(/C=C(\C#N)C(=O)N2CCOCC2)ccc1OCc1ccccc1	7	-36%	1.3%	0%
Cn1c(=O)c2c(nc(N3CCc4ccccc4C3)n2C)n(C)c1=O	14	-5%	0.2%	-6%
O=C(OCCCN1C(=O)c2ccccc2C1=O)c1ccco1	7	1%	0.6%	1%
Cc1cccc(C(C)C)c1NC(=O)C1CN(S(=O)(=O)c2ccccc2)CCN1S(=O)(=O)c1ccccc1 (stereo not given)	-4	0%	0.0%	3%
O=c1[nH]c(C2CCN(S(=O)(=O)c3ccccc3)CC2)nc2c1nnn2Cc1cccc(Cl)c1	/	1%	-2.1%	18%
O=C(C=Cc1cccs1)c1cccs1	/	/	4.1%	-1%
COc1ccc(N(CC(=O)N2CCc3ccccc3C2)S(C)(=O)=O)cc1OC	1	-2%	2.6%	-22%
CC(C)(C)OC(=O)N1CCCC(C(=O)Nc2ccc(C(=O)NCc3ccccc3)cc2)C1 (stereo not given)	/	/	1.2%	10%
CC1(C)Cc2c(sc(NC(=O)COc3cccc4ccccc34)c2C#N)C(C)(C)N1	-14	-9%	-1.6%	-14%
O=C(N/N=C\c1cccc(Cl)c1)c1n[nH]c2c1CCCC2	0	-26%	1.3%	-18%
CC(=O)c1c(C)[nH]c(C(=O)CSc2nnc(-c3ccco3)n2Cc2ccccc2)c1C	-2	8%	-4.0%	-2%
COC(=O)C(C#N)c1nc2ccccc2nc1N1CCCC1 (stereo not given)	-7	-11%	0.6%	?

Later entries
SMILES	GLA inh pH 4.5	miR-21 reporter	Rango-impB inh	Rango dissoc inh
O=C(Nc1nnc(Cc2ccccc2)s1)C1CCN(C(=O)c2ccco2)CC1	/	-3%	-2.0%	?
CCOC(=O)C1(CC2CCCCO2)CCN(Cc2ccccc2-c2ccco2)CC1 (stereo not given)	2	-1%	-0.1%	0%
COc1cccc(N2CCN(c3nc(C)c(C)c(=O)[nH]3)CC2)c1	/	3%	0.0%	1%
CC(C(=O)O)N1C(=O)/C(=C/c2cccn2C)SC1=S (stereo not given)	-10	-4%	?	2.6µM*
COc1cc(N=C2C(=O)N3CCCc4cccc2c43)cc(OC)c1	-10	-9%	5.1%	0%
CN1CCN(Cc2nc3c([nH]2)c(=O)[nH]c(=O)n3C)CC1	0	-1%	-1.9%	-1%
O=C(O)CC1S/C(=N\N=C/c2ccccc2O)N(c2ccc(O)cc2)C1=O (stereo not given)	2	0%	0.3%	-12%
COc1ccc(NC(=S)N2CCN(Cc3ccco3)CC2)c(OC)c1	2	-9%	5.6%	-2%
Cc1cccc(Nc2nc(-c3c(C)nc4ccccn34)cs2)c1	-6	26%	-0.5%	26%
COc1cc(C(=O)N2CCN(C(=O)c3cccc4ccccc34)CC2)cc(OC)c1OC	/	0%	-1.8%	?
CCC1=NN2C(=N)/C(=C\c3cccn3-c3ccc(C)c(C)c3)C(=O)N=C2S1	-4	4%	-0.6%	-9%
COc1ccc(Cl)cc1C(=O)NCC(c1ccco1)N1CCCC1 (stereo not given)	-5	-1%	0.0%	-2%
CNC(=O)C(=O)NCCN1CCN(S(=O)(=O)c2ccc3ccccc3c2)CC1	/	2%	0.3%	-6%
Cc1cc(NS(=O)(=O)c2ccc(Nc3nc(-c4ccc(C)c(C)c4)cs3)cc2)no1	-1	-19%	-4.0%	1%
C=CCn1c(=S)[nH]c2ccc(Br)cc2c1=O	-2	-3%	-2.5%	3%
CC1(c2ccc([N+](=O)[O-])cc2)NC(=O)NC1=O (stereo not given)	/	0%	1.4%	33%
